Screening results from PubChem BioAssay.
VACV Venus inh – qHTS for Stage-Specific Inhibitors of Vaccinia Orthopoxvirus: Venus Reporter Primary qHTS; Vaccinia virus Venus reporter expression, fluorescence; Potency, µM (doses to about 36.5 µM), for inactives: top-dose activity change, negative = inhibition, usual class: inhibitors; 330,000 compounds, 0.46% hits; AID 720580, 2013; active means well fitted inhibition curve with a large enough effect; inconclusive means small, poorly fitted or top-dose-only effect; inactive means no such curve, though single readings can be large or run the other way; tested in A549 cells; also: nearly all actives have a fitted effect of over 30% in size; inactives centre near -10
VACV mCherry inh – qHTS for Stage-Specific Inhibitors of Vaccinia Orthopoxvirus: mCherry Reporter Primary qHTS; 310,000 compounds, 0.63% hits; AID 720579, 2013; Vaccinia virus mCherry reporter infection, fluorescence; about a quarter of the inactives have no number; Potency, µM (top dose mostly 36.5 µM), for the others: at the top dose activity change, negative = inhibition, most hits filed as inhibitors; active = well fitted inhibition curve with a large enough effect; inconclusive = small, poorly fitted or top-dose-only effect; inactive = no such curve, though single readings can be large or run the other way; tested in A549 cells; also: nearly all actives have a fitted effect of over 35% in size; inactives centre near -10
* = called active by the depositor; i = inactive; u = inconclusive; x = no result given; [ ] = dose if it differs, or a comment. % is scaled to controls: 0 for no effect and ±100 for the full control effect; potency is read from the fitted curve at half-maximal effect.

SMILES | VACV Venus inh | VACV mCherry inh
Cc1ccccc1Nc1nc(N)nc(CSc2n[nH]c(N)n2)n1 | -12% | i
Cc1ccc(S(=O)(=O)N2CCN(c3nc(-c4ccc(CN5CCNCC5)s4)nc4ccccc34)CC2)cc1 | -18% | -6%
CCn1cc([N+](=O)[O-])c(C(=O)N2N=C(c3ccc4ccccc4c3)CC2c2cc(Br)ccc2O)n1 (configuration not stated) | u | 14µM*
Cc1nc2ccccc2c(=O)n1NC(=O)C1CCCCC1 | -9% | -16%
Cc1ccc(C(=O)NCC(=O)N2CCC3(CC2)NCCc2[nH]cnc23)cc1C | -2% | i
CCc1ccc(NC(=O)CCCN2C(=O)C3CC=CCC3C2=O)cc1 (configuration not stated) | -25% | -22%
Cc1ccc2c(c1)C1CN(C)CCC1N2C(=O)/C=C/c1ccc2c(c1)OCO2 (configuration not stated) | u | -4%
CN(C)c1ccc(CNC(=O)CCn2cccn2)cc1 | -2% | -5%
CC1CCCCN1CCCNC(=O)c1cc(Br)c(Br)[nH]1 (configuration not stated) | -20% | -1%
Cc1ccc(-c2nnn(CC(=O)N(Cc3ccco3)C(C(=O)NC3CCCC3)c3cccs3)n2)o1 (configuration not stated) | -8% | -15%
Cc1nc(-[n+]2nc(-c3ccncc3)nn2-c2ccccc2)sc1C | u | -28%
COc1cccc(-c2noc(COc3ccccc3Cl)n2)c1 | -7% | -6%
COc1ccc(C(C)=O)cc1Cn1c(C)c(C(=O)NCc2ccc(C(C)C)cc2)sc1=O | -12% | 19%
C/C(=N\NS(=O)(=O)c1ccccc1)c1ccc2c(c1)OCCO2 | -1% | -10%
Cc1ccc(NC(=O)Cn2cc(S(=O)(=O)N3CCN(c4ccccc4F)CC3)c3ccccc3c2=O)cc1F | -6% | -14%

Quoted from the listing.
In VACV mCherry inh, CC1CCCCN1CCCNC(=O)c1cc(Br)c(Br)[nH]1 (configuration not stated) has -1%
In VACV Venus inh, C/C(=N\NS(=O)(=O)c1ccccc1)c1ccc2c(c1)OCCO2 has -1%
In VACV mCherry inh, Cc1ccc(-c2nnn(CC(=O)N(Cc3ccco3)C(C(=O)NC3CCCC3)c3cccs3)n2)o1 (configuration not stated) has -15%

Carrying on.
SMILES | VACV Venus inh | VACV mCherry inh
CN(C)S(=O)(=O)c1ccc(NC(=O)CN2CCCCCC2)cc1 | -3% | i
CC(C)CCNC(=O)C1CCN(C(=O)N(C)C)CC1 | -10% | -10%
CC1=C(C(=O)Nc2ccc(C)cc2Cl)C2(CCCCC2)OC1=O | -12% | -12%
Cn1nnnc1SCC(=O)C(C)(C)C | 1% | i
O=C(O)C1CC(=O)N(Cc2ccc3c(c2)OCO3)C1 (configuration not stated) | -1% | -8%
Cc1ccc(NC2=C(Cl)C(=O)OC2OC(=O)c2ccco2)cc1 (configuration not stated) | -6% | 0%
Cn1cnc(S(=O)(=O)N2CCN(c3cccc(Cl)c3)CC2)c1 | -22% | -21%
C[N+](C)(C)CCNC(=O)c1ccccc1 | 16% | 11%
COc1ccc(NC(=O)Nc2ccc3nc(C)c(C)nc3c2)cc1 | -9% | -12%
O=C(N/N=C/c1ccc([N+](=O)[O-])o1)c1cn(-c2ccccc2)nc1-c1ccccc1 | 0% | i
Cc1ccc(Nc2nc(C(=O)N3CCC(C(=O)NCc4ccccc4)CC3)cs2)cc1 | -16% | -15%
COCc1cc(C)nc(OCC(=O)N/N=C\c2cc(C)n(-c3cccc(C(F)(F)F)c3)c2C)c1C#N | -14% | x
O=C(Nc1ccc(F)c(Cl)c1)N1CCC2(CC1)Oc1ccccc1C(=O)N2Cc1ccccc1F | -13% | -13%
COc1ccc(NC(=O)C(C)N2c3cccc4cccc(c34)S2(=O)=O)c(OC)c1 (configuration not stated) | -6% | -12%
Cc1ccc(-c2nnc(SCc3cccc(C#N)c3)o2)cc1 | -8% | 8%
O=C(NC1CCCc2ccccc21)C(Cc1ccccc1)NS(=O)(=O)c1cccs1 (configuration not stated) | -10% | i
CCN(CC(=O)NCc1ccc(Cl)cc1)C(=O)CSc1ccccc1F | -13% | -18%
COc1ccccc1NC(=O)CC(=O)Nc1ccccc1OC | -18% | -9%
Cc1nc2nc[nH]n2c(=O)c1CCOC(=O)c1ccccc1F | 4% | -3%
CCC1(c2ccc(F)cc2)NC(=O)N(CC(=O)Nc2cccc(S(=O)(=O)N3CCCCC3)c2)C1=O (configuration not stated) | -24% | -21%
CN(C(=S)NC(=O)c1ccc(Br)o1)c1ccccc1 | -8% | -14%
COc1ccc2oc(=O)c(C(=O)NCc3ccc4c(c3)OCO4)cc2c1 | -4% | -15%
CCCS(=O)(=O)N1CCCC(c2nc(-c3cccc(OC)c3)no2)C1 (configuration not stated) | -11% | -14%
CCN1CCN(Cc2ccc(NC(=O)c3cc(NC(=O)c4ccc5n[nH]nc5c4)cc(OC)c3)cc2C(F)(F)F)CC1 | -1% | i
CC(=O)N1CCCc2cc(S(=O)(=O)N3CCC(C(=O)NCc4ccc(F)cc4)CC3)ccc21 | -3% | 0%
O=C(O)c1cc(-c2ccccc2)n(-c2ccc(F)cc2)n1 | -5% | i
Cc1onc(-c2ccccc2)c1C(=O)NCCN1CCOCC1 | -12% | i
O=C(c1ccco1)N1N=C(c2cccs2)CC1c1ccccc1O (configuration not stated) | -18% | -15%
Cc1ccc(Nc2nc(NCc3ccccc3)nc3ccsc23)c(C)c1 | u | u
CC(C)c1ccc(S(=O)(=O)Nc2ccc(-n3cnnn3)cc2)cc1 | -28% | -7%
CCOc1ccccc1CNc1nnnn1C | -11% | 0%
CC(=O)Nc1ccc(OC(F)(F)C(F)F)c(NC(C)=O)c1 | -7% | -4%
CCOC(=O)N1CCN(C(=O)C[C@@H]2C[C@@]3(C(=O)OCC)CCCC=C3N(CCc3ccc(OC)c(OC)c3)C2=O)CC1 | 6% | 0%
Cc1c(C(=O)N2CCOCC2)oc2c1-c1nn(CC(=O)NCc3cccc(F)c3)cc1CC2 | -3% | -2%
O=C(COc1ccc(S(=O)(=O)N2CCOCC2)cc1Cl)NCC1CCCO1 (configuration not stated) | 0% | -6%
Cc1ccc(S(=O)(=O)N2CCC(C(N)=O)CC2)cc1[N+](=O)[O-] | -9% | -1%
Cc1cnc(C(=O)Nc2nnc(SCc3c(Cl)cccc3Cl)s2)cn1 | -17% | -4%
CCOC(=O)c1sc(NC(=O)CCc2ccc(OC)cc2)nc1C | -4% | -11%
OCCN1CCN(CC(O)COC(c2ccc(F)cc2)c2ccc(F)cc2)CC1 (configuration not stated) | -6% | i
C[C@H](CO)N1C[C@H](C)[C@H](CN(C)S(=O)(=O)c2ccc(F)cc2)Oc2ncc(Br)cc2C1=O | -17% | -6%
O=C(CCCn1c(=O)[nH]c2ccccc2c1=O)N1CCN(c2ccccc2)CC1 | -4% | -11%
CCOC(=O)C1CCCN(CC(=O)NC2CC2)C1 (configuration not stated) | -5% | -9%
CC1CCC(NC(=O)CCN2C(=O)C3C4C=CC(C4)C3C2=O)CC1 (configuration not stated) | -18% | i
Cn1c(/C=C/c2ccc(Br)cc2)c([N+](=O)[O-])c(=O)n(C)c1=O | u | 13µM*
CCC(c1nnnn1Cc1ccccc1)N1CCC2(CC1)C(=O)NCN2c1ccccc1 (configuration not stated) | 0% | 24%

Part of the list above, with values under each structure.
Values run as follows: VACV Venus inh, VACV mCherry inh
> CC(=O)Nc1ccc(OC(F)(F)C(F)F)c(NC(C)=O)c1
    -7%, -4%
> O=C(COc1ccc(S(=O)(=O)N2CCOCC2)cc1Cl)NCC1CCCO1 (configuration not stated)
    0%, -6%
> Cn1cnc(S(=O)(=O)N2CCN(c3cccc(Cl)c3)CC2)c1
    -22%, -21%
> O=C(O)C1CC(=O)N(Cc2ccc3c(c2)OCO3)C1 (configuration not stated)
    -1%, -8%
> Cc1ccccc1Nc1nc(N)nc(CSc2n[nH]c(N)n2)n1
    -12%, i
> O=C(N/N=C/c1ccc([N+](=O)[O-])o1)c1cn(-c2ccccc2)nc1-c1ccccc1
    0%, i

Molecules shown so far that have an aryl thioether with sulfur outside any ring, in the order listed:
SMILES | VACV Venus inh | VACV mCherry inh
Cc1ccccc1Nc1nc(N)nc(CSc2n[nH]c(N)n2)n1 | -12% | i
Cn1nnnc1SCC(=O)C(C)(C)C | 1% | i
Cc1ccc(-c2nnc(SCc3cccc(C#N)c3)o2)cc1 | -8% | 8%
CCN(CC(=O)NCc1ccc(Cl)cc1)C(=O)CSc1ccccc1F | -13% | -18%
Cc1cnc(C(=O)Nc2nnc(SCc3c(Cl)cccc3Cl)s2)cn1 | -17% | -4%

Remaining list, next part:
SMILES | VACV Venus inh | VACV mCherry inh
CCN(CC)C(=O)C1=C(C)N(Cc2ccc(OC)cc2)C(=O)C(CC(=O)NCc2ccco2)C1 (configuration not stated) | -29% | u
Cc1nc2c(C#N)cnn2c2c1CCN2CC1CCCO1 (configuration not stated) | -16% | -11%
O=C(CSc1ncccn1)NCc1cccc(Cl)c1 | -7% | i
O=C(COC(=O)c1ccco1)NC1CCCCC1 | -2% | -7%
COc1cc(CNC2CCCC2)c(Br)cc1OC1CCCC1 | -18% | -3%
COC(=O)c1cc(N2CCN(C)CC2)nc2ccccc12 | -11% | i
Cc1cc(C)n2nc(C(=O)OCCOc3ccc(Br)cc3)nc2n1 | -8% | -9%
COc1ccc(CCNc2oc(COc3ccc(Cl)cc3)nc2C#N)cc1OC | 5% | 7%
CC(C)CC1C(=O)N(Cc2cn(Cc3ccco3)nn2)CCS(=O)(=O)N1Cc1ccc(-c2ccccc2)cc1 (configuration not stated) | u | -10%
CCCn1nnnc1SCC(=O)N1CCOCC1 | 2% | 0%
COc1ccccc1N(CC(=O)NCCSCc1ccccc1)S(C)(=O)=O | -7% | -1%
CCn1cc(C(=O)O)c(=O)c2cnc(N3CCN(C(=S)NC(=O)c4ccc(Cl)cc4)CC3)nc21 | -9% | -12%
COc1ccc(/C=N/NC(=O)c2ccc(Cl)cc2)cc1Cn1cc(Cl)cn1 | -13% | i
CCCn1cc(S(=O)(=O)c2ccccc2)c(=O)c2cc(CC)ccc21 | -8% | -15%
COc1ccc(/C=C/C(=O)Nc2ccc(C(N)=O)cc2)cc1OC | -4%[7.34 µM] | -5%[7.34 µM]

Compound profiles, as listed above. Order of screens: VACV Venus inh | VACV mCherry inh
`COC(=O)c1cc(N2CCN(C)CC2)nc2ccccc12` as listed: -11% | i
`CCn1cc(C(=O)O)c(=O)c2cnc(N3CCN(C(=S)NC(=O)c4ccc(Cl)cc4)CC3)nc21` as listed: -9% | -12%
`COc1ccc(/C=C/C(=O)Nc2ccc(C(N)=O)cc2)cc1OC` as listed: -4%[7.34 µM] | -5%[7.34 µM]
`CC(C)CC1C(=O)N(Cc2cn(Cc3ccco3)nn2)CCS(=O)(=O)N1Cc1ccc(-c2ccccc2)cc1` (configuration not stated) as listed: u | -10%
`Cc1cc(C)n2nc(C(=O)OCCOc3ccc(Br)cc3)nc2n1` as listed: -8% | -9%

Additional structures follow.
SMILES | VACV Venus inh | VACV mCherry inh
N#Cc1c(N)nc2c(c1-c1cccs1)CCCC2 | -13% | -9%
CC(C)c1ccc(CNCc2ccccc2)cc1 | -13% | -3%
CCc1ccccc1Nc1ncnc2ccccc12 | -8% | -8%
CCOC(=O)c1c(N)sc(C(=O)OC)c1C | -20% | -7%
Cc1cc(C)nc(-n2nc(C)c(C3(O)C(=O)Nc4ccccc43)c2N)n1 (configuration not stated) | 7% | 0%
Cn1nc(-c2ccccc2)c(CO)c1Oc1ccc(F)cc1 | -3% | -6%
Cc1ccccc1C(=O)NCCn1cc(SCC(=O)NCC2CCCO2)c2ccccc21 (configuration not stated) | -3% | -16%
CCCCN(CCCC)S(=O)(=O)c1ccc(NC(=O)c2ccc([N+](=O)[O-])cc2Cl)cc1 | u | u
CN(C)c1ccc(NC(=O)c2ccc(Cn3cc([N+](=O)[O-])cn3)cc2)cc1 | -19% | u
Cc1cccc(C(=O)Nc2ccc3nc(SCC(=O)N4CCc5ccccc54)sc3c2)c1 | -6% | -9%
COc1ccc(CCNC(=O)C2CC(c3c(Cl)cccc3Cl)=NO2)cc1 (configuration not stated) | -24% | -16%
CCN1C(=O)[C@H]2[C@@H](c3ccc(C)cc3)N3C(=O)N(c4cccc(Cl)c4)C(=O)[C@@]3(C)[C@H]2C1=O | -11% | 0%
O=c1[nH]nnc2sc3c(c12)CCCC3 | -14% | x
COc1ccc(C2CC(c3cccs3)=NN2C(=O)CSc2nnnn2C)cc1OC (configuration not stated) | -8% | -10%
CCOC(=O)CN1C(=O)C(O)(CC(=O)c2ccccn2)c2ccccc21 (configuration not stated) | -5% | -4%
CC1CCN(S(=O)(=O)c2ccc3c(ccn3CC(=O)NCc3ccccc3F)c2)CC1 | -5% | -13%
COc1cc(Nc2ccc(C)cc2)c([N+](=O)[O-])nc1[N+](=O)[O-] | -9% | -5%
CC1(C)CC(=O)C(N=Nc2ccc(C(F)(F)F)cc2[N+](=O)[O-])=C(O)C1 | -5% | -2%
O=C(O)[C@@H]1CC(O)CN1C(=O)CCc1c[nH]c2ccccc12 (some centres not stated) | -4% | i
CC(C)CN1CCN(Cc2ccc(C(F)(F)F)cc2)CC1CCO (configuration not stated) | -1% | -9%
O=C(CCS(=O)(=O)c1ccccc1)Nc1nc(-c2ccc(F)cc2)cs1 | u | 13µM*
COc1ccc2cc(/C=N/NC(=O)CN(c3ccccc3C)S(=O)(=O)c3ccccc3)c(Cl)nc2c1 | -2% | -7%
O=C(c1ccco1)N1CCN(C(=O)C2CCN(S(=O)(=O)c3cnc[nH]3)CC2)CC1 | -9% | -15%
Cn1cc(C(=O)C(=O)NCCc2ccccc2)c2ccccc21 | 0% | 4%
